Assay outcomes (PubChem)
GLS inh = glutaminase GLS (human) inhibition | O94925 | GLS enzymatic activity, qHTS titration | Potency, µM (top dose mostly 45.5 µM), for inactives: top-dose activity change, negative = inhibition, hits mostly inhibitors | 0.21% of 410,000 active; note: % is set by controls: 0 for no effect and ±100 for the full control effect
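Assay buffer: 45 mM KH2PO4 pH 8.2, 0.02% Tween-20. hKGA acts on L-glutamine (1 mM solution added); product glutamate is reported by an oxidase/peroxidase Amplex Red coupling, with fluorescence taken at baseline and 30 min.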
HP1b chromo inh = HP1-beta chromodomain-methylated histone interaction inhibition; P83916; AlphaScreen HP1-beta / biotin-H3K9me3 peptide binding; Potency, µM (titrated, usually from 114 µM), for the others: at the highest dose activity change, negative = inhibition, actives largely listed as inhibitors; 0.56% of 390,000 active; note: nearly all actives have a fitted effect of over 70% in size; inactives centre near 23
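Compound inhibition of the preformed complex between 50 nM HP1-beta and 50 nM biotinylated H3K9me3 peptide was read by AlphaScreen. Buffer was PBS pH 7.4 with 0.01% Tween-20. Incubations ran 30 min at room temperature, with 10 ug/mL donor/acceptor beads.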
BLM inh = Bloom syndrome helicase (human) inhibition. P54132. recombinant BLM DNA unwinding, fluorescence dequenching. Potency, µM (titrated, usually from 56.1 µM), for the others: top-dose activity change, negative = inhibition, most hits filed as inhibitors. 0.2% of 350,000 active. AID 2528;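 note: plate controls were vehicle for no effect and no enzyme for full effect; nearly all actives have a fitted effect of over 35% in size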
Tb PGK inh = inhibitors of T. brucei phosphoglycerate kinase; 0.043% of 380,000 active; PGK/GAPDH coupled, Kinase-Glo luminescence, 60 min; Potency, µM (doses to about 57.5 µM), for inactives: at the top dose activity change, negative = inhibition, hits mostly inhibitors; AID 602233; note: % is set by controls: 0 for no effect and ±100 for the full control effect; nearly all actives have a fitted effect of over 60% in size
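Luminescent ATP detection (Kinase-Glo Plus) follows a 60-minute room-temperature incubation, with wells lacking PGK as controls. Buffer: 100 mM TEA (pH 7.6), 5 mM MgCl2, 0.01% Tween-20. Coupling enzyme GAPDH (100 nM final) supplies unstable 1,3-BPG in-well.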
Pin1 inhibitor = inhibitors of human Pin1; Q13526; Pin1 FP peptide displacement, HiFluor488, 10 min; Potency, µM (doses to about 115 µM), inactives show top-dose activity, negative = inhibition, hits mostly inhibitors; 0.009% of 390,000 active; AID 504891; active = well fitted inhibition curve with a large enough effect in the polarisation, with a control signal flat, not every such curve was filed as active; inconclusive = small, poorly fitted or top-dose-only effect, or effect the other way, or a change in a side signal; inactive = no such curve, though single readings can be large or run the other way; the % refers to the polarisation; note: % is set by controls: 0 for no effect and ±100 for the full control effect
Starred values were filed as active, the others as inactive; ? = inconclusive; . = not tested or not shown; [ ] = another dose, or the depositor's remark. Unless noted, calls come from the whole dose curve; as a rule, active = well fitted curve in the direction sought with a large enough effect; inconclusive = small, poorly fitted or top-dose-only effect, or another doubt; inactive = no such curve, though single readings can be large; an effect the other way counts as inactive or inconclusive. Potency is the fitted concentration of half-maximal effect. An excerpt. The share of hits here may be higher or lower than overall.

Assay codes: A = GLS inh; B = HP1b chromo inh; C = BLM inh; D = Tb PGK inh; E = Pin1 inhibitor
> CCN(CC)C(=O)CSc1ncnc2c(-c3cccs3)nsc12
  A: -26.7%; B: -16.1%; C: -9.4%; D: -3.9%; E: ?

> O=C(c1cc(-c2ccco2)nc2ccccc12)N1CCCC(C(F)(F)F)C1 (stereo not given)
  A: ?; B: -17.6%; C: .; D: -0.4%; E: 2.4%

> CC1=C(/C=C/C(C)=C/C=C/C(C)=C/C=C/C=C(C)/C=C/C=C(C)/C=C/C2=C(C)C(=O)C(O)CC2(C)C)C(C)(C)CC(O)C1=O (stereo not given)
  A: .; B: .; C: 1.1%; D: .; E: .

> Cc1cccc(NC(=O)CCc2nc3sc4c(c3c(=O)[nH]2)CCCC4)n1
  A: 4.2%; B: -31.1%; C: .; D: -15.2%; E: ?

> NC(=O)COc1ccc(-n2cnnn2)cc1
  A: ?; B: -7.5%; C: ?; D: -7.9%; E: ?

> Cc1ccc(N=Cc2c(O)[nH]c3ccccc23)c([N+](=O)[O-])c1
  A: -4.1%; B: 61.2%[activator]; C: -11.8%; D: -2.6%; E: -7.9%

> COc1ccc(OC)c(NC(=O)CSc2sc3c(O)cc(=O)[nH]c3c2C#N)c1
  A: -6.0%; B: ?; C: -20.4%; D: -26.5%; E: ?

> COc1ccc(C(=O)Oc2coc(CSc3nnc(NC(=O)c4cccs4)s3)cc2=O)cc1
  A: 1.3%; B: 12.6%; C: -19.7%; D: -3.2%; E: 47.4%[activator]

> NC(=O)C1CCN(C(=O)CCc2nc3sc4c(c3c(=O)[nH]2)CCCC4)CC1
  A: -20.2%; B: -11.2%; C: .; D: -14.9%; E: ?

> COc1cc(NC(=O)c2ccccc2)c(OC)cc1NC(=O)Cc1cccs1
  A: 0.5%; B: 70.8µM*; C: 11.2µM*; D: -12.1%; E: 37.2%[activator]

> COc1ccc(NC(=O)CSc2nc3nc(-c4cccs4)cc(C(F)(F)F)c3c(=O)[nH]2)c(OC)c1
  A: 4.7%; B: ?; C: -8.7%; D: -2.0%; E: 0.2%

> O=C(c1cc(-c2ccco2)on1)N1CCc2ccccc2C1
  A: -6.0%; B: -15.9%; C: ?; D: -9.2%; E: ?

> O=C(Cc1cccs1)Nc1ccc(S(=O)(=O)Nc2ncccn2)cc1
  A: -20.7%; B: -6.7%; C: -19.5%; D: ?; E: 54.1%[activator]

> COc1cccc2cc(C(=O)C3=C(O)C(=O)N(c4cc(C)on4)C3c3cccs3)oc12 (stereo not given)
  A: ?; B: -3.5%; C: -14.5%; D: 3.6%; E: 4.9%

Sorted by length of the SMILES (low to high): part of the list above
Assay codes: A = GLS inh; B = HP1b chromo inh; C = BLM inh; D = Tb PGK inh; E = Pin1 inhibitor
> CCN(CC)C(=O)CSc1ncnc2c(-c3cccs3)nsc12
  A: -26.7%; B: -16.1%; C: -9.4%; D: -3.9%; E: ?

> O=C(Cc1cccs1)Nc1ccc(S(=O)(=O)Nc2ncccn2)cc1
  A: -20.7%; B: -6.7%; C: -19.5%; D: ?; E: 54.1%[activator]

> COc1cc(NC(=O)c2ccccc2)c(OC)cc1NC(=O)Cc1cccs1
  A: 0.5%; B: 70.8µM*; C: 11.2µM*; D: -12.1%; E: 37.2%[activator]

> Cc1cccc(NC(=O)CCc2nc3sc4c(c3c(=O)[nH]2)CCCC4)n1
  A: 4.2%; B: -31.1%; C: .; D: -15.2%; E: ?

> COc1ccc(OC)c(NC(=O)CSc2sc3c(O)cc(=O)[nH]c3c2C#N)c1
  A: -6.0%; B: ?; C: -20.4%; D: -26.5%; E: ?

> COc1ccc(C(=O)Oc2coc(CSc3nnc(NC(=O)c4cccs4)s3)cc2=O)cc1
  A: 1.3%; B: 12.6%; C: -19.7%; D: -3.2%; E: 47.4%[activator]

> COc1ccc(NC(=O)CSc2nc3nc(-c4cccs4)cc(C(F)(F)F)c3c(=O)[nH]2)c(OC)c1
  A: 4.7%; B: ?; C: -8.7%; D: -2.0%; E: 0.2%

> CC1=C(/C=C/C(C)=C/C=C/C(C)=C/C=C/C=C(C)/C=C/C=C(C)/C=C/C2=C(C)C(=O)C(O)CC2(C)C)C(C)(C)CC(O)C1=O (stereo not given)
  A: .; B: .; C: 1.1%; D: .; E: .
